# High-throughput results from PubChem.
# Sa growth inh = blocks Staphylococcus aureus growth; S. aureus RN4220 growth, OD600, 20 h, 42 °C; hits give low values; AID 720641; relative growth, % (no concentration beside the values); 170,000 compounds, 0.53% hits;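 active = growth at 42 °C up to 50% and 20 or more points under that at 30 °C, or under 10% at both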;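 note: 300 nL library stock went into each well; scaled to the means of positive and negative controls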
# GIV Gai3 FP = GIV-Galpha-i interaction inhibition | Galpha-i3/FITC-GIV peptide fluorescence polarization, 90 min; hits give low values; scaled: aluminum fluoride 0%, vehicle 100% | percent of control (FP), % (no concentration beside the values) | 210,000 compounds, 0.42% hits;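 active = replicate mean at 85% of control or lower, very high polarization wells dropped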;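 note: wells of about 15 µL received 100 nL stock; the first replicate is given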
# Target sequence (P08753 whole entry, looked up): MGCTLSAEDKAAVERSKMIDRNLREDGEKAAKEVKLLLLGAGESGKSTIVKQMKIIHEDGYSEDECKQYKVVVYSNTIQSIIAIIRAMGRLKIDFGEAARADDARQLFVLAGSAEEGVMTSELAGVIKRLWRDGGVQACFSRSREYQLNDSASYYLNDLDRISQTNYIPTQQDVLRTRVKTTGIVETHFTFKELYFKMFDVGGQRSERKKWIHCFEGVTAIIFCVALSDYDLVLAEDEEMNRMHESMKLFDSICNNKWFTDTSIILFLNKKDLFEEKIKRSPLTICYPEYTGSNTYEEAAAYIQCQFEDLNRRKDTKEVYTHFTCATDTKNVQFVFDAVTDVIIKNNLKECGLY
# HCMV NEC inh = inhibitors of HCMV UL50-UL53 nuclear egress complex interaction; AID 1918969; inhibition, % (concentration not given with the values); 190,000 compounds, 0.15% hits; HTRF UL50-UL53 interaction, normalized percent inhibition;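 active = both replicates at 50% or more, plus weaker picks with an unusually low signal ratio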;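 note: stock transfer was 100 nL into about 20 µL; 0% = negative control wells and 100% = wells with untagged competitor protein; inactives centre near -12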
# Sa growth inh second temp = further read-out of Sa growth inh, marked with its call; relative growth, %; measured here: growth at 30 °C;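 optical density after 20 h as mean of two plates; 100% = untreated growth and lower means inhibition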
# An asterisk follows results filed as active; / = not tested or not shown; & = joins results of further samples.
compound,Sa growth inh second temp,Sa growth inh,GIV Gai3 FP,HCMV NEC inh
Cc1cc(C)nc(NS(=O)(=O)c2ccc(NC(=O)C34CC5CC(CC(C5)C3)C4)cc2)n1,/,/,97.9,-9.7
Cc1ccc2c(c1)C(=O)CCCC1C(=O)N2CCN1C(=O)c1ccccc1 (stereo unspecified),86.8,107.9,/,-20.6
Cc1nn(CCC#N)c2nc(-c3ccccc3)cc(C(F)(F)F)c12,83.7,94.2,/,-18.0
CCCc1cc(=O)n2[nH]c(CNc3ccccc3)nc2n1,/,/,111.3,-10.9
CC1=C(C#N)C(c2ccc(-c3ccc(OC(F)(F)F)cc3)o2)C2=C(CCCC2=O)N1 (stereo unspecified),98.9,105.6,98.8,-8.1
Cn1c(=O)oc2cc(S(=O)(=O)N3CCC(C(=O)NCc4ccc(F)cc4)CC3)ccc21,89.9,116.1,102.7,-16.6
CCOC(=O)c1cccc(NC2=NC3(CCCCC3)N=C(N)N2)c1,87.3,102.8,96.1,/
Cc1csc(NC(=O)/C=C\C(=O)O)n1,90.1,114.3,95.0,-2.5
CCOc1ccc(CCNC(=O)c2sc3ncccc3c2-n2c(C)ccc2C)cc1,104.2,122.0,106.0,/
COc1ccc(NC(=O)C2CSC(C)(C)N2C=O)cc1 (stereo unspecified),87.8,66.9,105.1,/

# The listing continues.
compound,Sa growth inh second temp,Sa growth inh,GIV Gai3 FP,HCMV NEC inh
COc1ccc(/C=N/c2nc3ccccc3n2CCN2CCCCC2)cc1OC,87.8,105.6,105.5,/
COc1nc(-c2ccccc2)ccc1-c1noc(-c2ccccc2Br)n1,92.8,86.2,106.1,-8.0
CC(=O)Nc1ccc(Oc2nnc(-c3ccc(Cl)cc3)c3ccccc23)cc1,/,/,104.7,-18.3
C=CCNC(=O)CSc1nc(O)cc(=O)[nH]1,94.2,96.8,108.3,2.0
Cc1ccc(C(=O)CC(SCc2ccco2)c2cccs2)cc1 (stereo unspecified),86.2,71.8,/,-34.6
CCc1ccc2ncc3c(-c4ccccc4)nn(-c4ccccc4)c3c2c1,107.9,103.0,101.7,1.7
Cc1ccc(C2=NNC(C(O)C(O)C(O)C(C)O)S2)cc1 (stereo unspecified),86.5,95.7,/,-10.4
Cc1cccc2c1-c1sc(C(=O)NCCCN3CCN(c4ccccc4F)CC3)cc1CO2,81.9,115.3,107.2,-24.2
CS(=O)(=O)NCCOc1ccccc1,94.1,97.0,/,-14.5
O=C(c1ccc(N2CCCS2(=O)=O)cc1)N1CCCC1,88.4,96.0,98.1&106.5,-11.1&-28.0

# The listing continues:
compound,Sa growth inh second temp,Sa growth inh,GIV Gai3 FP,HCMV NEC inh
CCN1/C(=N\N)c2cccc3cccc1c23,62.9,86.8,127.0,-52.3
O=c1c2c3c(sc2[nH]c(=S)n1-c1ccccc1)CCC3,/,/,102.8,11.3
COc1cccc(NC(=O)N2Cc3ccccc3Oc3ncccc32)c1,85.8,96.9,101.9,-9.7
O=C(CCOc1ccccc1)OCc1ccccc1F,90.2,96.6,/,-11.5
CC(=O)NC(Cc1cccc(C)c1)C(=O)NC1CCN(c2nc(C)cc(C)c2C#N)CC1 (stereo unspecified),93.7,113.9,100.4,3.6
CN1/C(=C/C=C(C#N)C#N)C=Cc2ccccc21,96.5,75.5,/,-34.8
COc1ccc(-c2cc(C(F)(F)F)n3nc(C(=O)NCCN4CCOCC4)c(Br)c3n2)cc1,89.8,97.4,104.5,-10.4
CC(C)C1Cc2c(sc3nc(SCC(=O)O)n(-c4ccccc4)c(=O)c23)CO1 (stereo unspecified),92.3,106.0,101.6,-3.3
N=C1SC(c2ccccc2)C(=O)N1c1nccs1 (stereo unspecified),67.1,100.2,98.9,/
Cc1cc(C(=O)N/N=C2\C(=O)c3cccc4cccc2c34)c(C)o1,94.6,108.5,/,-34.6

# (cont.)
compound,Sa growth inh second temp,Sa growth inh,GIV Gai3 FP,HCMV NEC inh
CC1Cn2cc(C(=O)NCCc3ccc(S(N)(=O)=O)cc3)c(=O)c3c(Cl)ccc(c32)O1 (stereo unspecified),/,/,98.1,8.9
COC(=O)c1ccc(COc2ccc(-c3nn[nH]n3)cc2)cc1,86.7,122.9,99.9,-9.9
Cc1ccc(C(=O)Oc2ccc3oc(=O)sc3c2)cc1,96.5,108.2,105.4,/
CC1=C(C(N)=O)C(c2ccc(C)o2)C(C(N)=O)=C(C)N1,86.3,117.9,105.3,-7.7
CN(NS(=O)(=O)c1ccccc1C(F)(F)F)c1cnc2ccccc2n1,89.1,92.4,102.0,3.3
CCOc1ccc(CNS(=O)(=O)c2ccc3c(c2)CCCN3C(C)=O)cc1OC,92.9,91.7,101.2,/
CCCC1Cc2[nH]c(=O)c(C#N)cc2CO1 (stereo unspecified),99.1,97.6,102.7,-2.7
Cc1cccc(-n2c(O)c(C3=c4ccccc4=NC3=O)sc2=S)c1,99.4,125.4,100.5,/
Cc1ccnc(NC(c2ccc(Cl)cc2)n2nc(C)cc2C)c1 (stereo unspecified),88.6,79.1,/,-0.9
CCN(CC)c1ccc(NC(=O)c2cc3c(=O)n4cccc(C)c4nc3n2C)c(C)c1,103.1,116.8,104.2,-8.3

# Continuation.
compound,Sa growth inh second temp,Sa growth inh,GIV Gai3 FP,HCMV NEC inh
Cc1nn(C(=O)c2ccoc2C)c(N)c1-c1ccccc1,61.4,73.7,112.4,-11.4
O=C(O)CNC(=O)c1cccc(C(F)(F)F)c1,/,/,97.6,3.8
CC(C)CNC(=O)c1c(N)n(/N=C/c2ccncc2)c2nc3ccccc3nc12,100.4,109.6,104.4,-0.9
N#Cc1c(N)n[nH]c1CCCCCN=Cc1cc(Br)ccc1O,91.5,111.9,/,-3.1
COc1ccc2c(Sc3ccccc3)c(C(=O)NCC(C)c3ccccc3)[nH]c2c1 (stereo unspecified),109.7,129.7,97.1,-16.7
Cc1cc(C(=O)N2CC(C)CC(C)C2)n[nH]1 (stereo unspecified),88.2,104.3,103.2,/
COC(=O)NC(=C(Cl)Cl)c1ccc(C)c(F)c1,87.2,114.0,/,-12.5
COc1cccc(-c2nc(-c3ccccc3)[nH]c2-c2cccc(OC)c2)c1,79.7,116.4,108.8,/
CC(CNC(=O)C1CCCN(C(=O)N2CCOc3ccccc32)C1)c1ccccc1 (stereo unspecified),78.7,91.7,102.8,-24.4
CCOC(=O)N1CCC(N2C(=O)c3ccc(C(=O)NCCOC)cc3C2=O)CC1,95.6,93.4,112.3,-64.6

# Continued.
compound,Sa growth inh second temp,Sa growth inh,GIV Gai3 FP,HCMV NEC inh
Cc1nn(-c2ccccc2)c2c1-c1onc(C(=O)NCc3ccco3)c1CC2,86.0,101.0,108.4,-13.8
CCOC(=O)Cn1cnc2oc(C)c(C)c2c1=O,/,/,106.9,-16.2
Cc1ccccc1-c1noc(-c2cn(C)c3cc(N4CCCCC4)c(F)cc3c2=O)n1,/,/,104.1,-29.8
COc1ccc(C2CSCCN2)cc1 (stereo unspecified),/,/,102.9,-11.3
NC1=NC(c2cc(F)cc(F)c2)n2c(nc3ccccc32)N1 (stereo unspecified),84.4,87.5,102.6&94.2,-0.5&-19.3
CC1=NNC(c2ccc(O)cc2)C1 (stereo unspecified),81.2,103.3,247.0,/
CC(=O)c1cccc(NC(=O)CSc2nc(=O)n(Cc3cccnc3)c3c2CCC3)c1,82.2,140.7,101.9,/
CCCc1nnc(NC2CCCC2)s1,91.2,105.8,/,-14.4
Nc1nc(=S)nc(-c2ccncc2)[nH]1,75.3,65.6,/,-12.9
CCOC(=O)C1CCCN(S(=O)(=O)c2csc(C(N)=O)c2)C1 (stereo unspecified),90.9,103.3,106.7,/

# Some values from the list:
# For Sa growth inh, `CC(=O)c1cccc(NC(=O)CSc2nc(=O)n(Cc3cccnc3)c3c2CCC3)c1` has 140.7
# For Sa growth inh, `CCCc1nnc(NC2CCCC2)s1` has 105.8

# (listing goes on)
compound,Sa growth inh second temp,Sa growth inh,GIV Gai3 FP,HCMV NEC inh
Cc1cc(N2CCCC2)nc(-n2nc(C)cc2C)n1,26.7*,7.7*,96.5,-12.1
CCCN(C(=O)CSc1ccccc1C(=O)O)C1CCS(=O)(=O)C1 (stereo unspecified),91.1,100.2,/,-10.1
O=C(C1CC2C=CC1C2)N1CCN(c2ccccc2)CC1 (stereo unspecified),90.0,91.5,/,9.7
O=c1c2c(nc3n1CCC3)sc1c(O)c(Br)ccc12,80.7,103.3,104.5,1.2
COC(=O)C1=C(c2ccccc2)c2ccccc2S(=O)(=O)N1CC(=O)Nc1ccccc1OC,/,/,100.8,-25.2
CS(=O)(=O)c1ccc2ccn(O)c2c1,92.1,103.0,106.3,-21.3
COc1ccc2cc3c(nc2c1)N(S(=O)(=O)c1ccc(OC)c(OC)c1)CC3,/,/,101.9,-10.5
COc1ccc(Cn2c(SCC(N)=O)nc3c(sc4ccccc43)c2=O)cc1,89.9,120.4,102.6,/
CCn1cc(CN(C)C(=S)Nc2ccc(Br)cc2Cl)c(C)n1,97.0,94.3,98.8,-2.2
COc1ccc(Oc2nc3c(c(=O)n(C)c(=O)n3C)n2Cc2ccc(Cl)cc2Cl)cc1,87.1,110.6,99.2,/

# (cont.)
compound,Sa growth inh second temp,Sa growth inh,GIV Gai3 FP,HCMV NEC inh
Cn1c(=O)n(-c2ccc(F)cc2)c2nc(-c3cc(F)ccc3F)nc(C(N)=O)c21,/,/,104.3,-8.4
O=C(c1cc2ccccc2oc1=O)N1CCSC1c1ccc2c3c(cccc13)CC2 (stereo unspecified),/,/,101.6,-16.4
O=C(Cn1cc(S(=O)(=O)N2CCCC2)c(S(=O)(=O)N2CCCC2)c1)N1CCc2ccccc21,102.2,103.9,112.4,2.0
CCOC(=O)c1ccc2[nH]c(CSc3nnc(-c4cccc(F)c4)n3C)cc(=O)c2c1,89.8,73.7,105.4,/
CN(C)C(=S)Nc1ccc(S(=O)(=O)N2CCCCC2)cc1,82.4,93.0,100.1,-52.0
CC(NC(=O)c1ccc2c(c1)N(C)CCS2)c1ccccc1 (stereo unspecified),98.2,91.7,101.9,4.9
NS(=O)(=O)c1ccccc1,105.3,70.1,102.0,22.9
COC(=O)CSc1sc(C#N)c2c1C(=O)CC(C)(C)C2,85.4,81.6,99.7,-84.8
CCn1c(SC(C)C(=O)NC(C)c2ccc(F)cc2)n[nH]c1=O (stereo unspecified),95.7,84.4,/,-26.5
CSc1nc(C)c2cc(C)oc2n1,82.9,98.7,103.8,-18.1

# Further compounds
compound,Sa growth inh second temp,Sa growth inh,GIV Gai3 FP,HCMV NEC inh
CC(C)(C)C(=O)/C(C#N)=C/c1ccc(C#N)cc1,90.0,74.3,/,-25.7
O=C(Cn1cnnn1)Nc1ccccc1Cc1ccccc1,94.5,93.2,/,-3.7
CS(=O)CCNC(=O)Nc1ccc(Cl)c(Cl)c1 (stereo unspecified),88.0,106.9,107.2,/
NC(=O)Cn1nnc2sc3c(c2c1=O)CCCC3,90.1,68.8,97.3,/
Cc1cccc(NC(=O)c2cc(S(=O)(=O)NCc3ccc4c(c3)OCO4)ccc2F)c1C,83.0,97.0,106.9,/
O=C(CSc1nnc2n1CCCCC2)N1N=C(c2ccco2)CC1c1ccco1 (stereo unspecified),93.9,61.0,/,-44.3
CCSc1nc(C(F)(F)F)c(C(=O)c2ccccc2)cc1C#N,97.5,87.8,/,1.2
COc1cc2c(cc1NC(=O)CN1CCN(S(=O)(=O)c3ccc(F)cc3)CC1)oc1ccccc12,93.6,98.8,99.1,-19.1
Cc1ccc(N(Cc2ncc(-c3ccccc3)o2)S(=O)(=O)c2ccc3c(c2)OCCO3)cc1,91.3,79.3,/,-17.2
COc1ccc(CNCCCSc2nnnn2-c2ccccc2)cc1,92.8,99.1,100.9,-23.0

# Entries listed so far with a CF3 group, in the order listed:
compound,Sa growth inh second temp,Sa growth inh,GIV Gai3 FP,HCMV NEC inh
Cc1nn(CCC#N)c2nc(-c3ccccc3)cc(C(F)(F)F)c12,83.7,94.2,/,-18.0
CC1=C(C#N)C(c2ccc(-c3ccc(OC(F)(F)F)cc3)o2)C2=C(CCCC2=O)N1 (stereo unspecified),98.9,105.6,98.8,-8.1
COc1ccc(-c2cc(C(F)(F)F)n3nc(C(=O)NCCN4CCOCC4)c(Br)c3n2)cc1,89.8,97.4,104.5,-10.4
CN(NS(=O)(=O)c1ccccc1C(F)(F)F)c1cnc2ccccc2n1,89.1,92.4,102.0,3.3
O=C(O)CNC(=O)c1cccc(C(F)(F)F)c1,/,/,97.6,3.8
CCSc1nc(C(F)(F)F)c(C(=O)c2ccccc2)cc1C#N,97.5,87.8,/,1.2

# Later entries.
compound,Sa growth inh second temp,Sa growth inh,GIV Gai3 FP,HCMV NEC inh
Cc1ccc(S(=O)(=O)Nc2nnc(CC(C)(C)C)s2)cc1,89.8,117.7,100.8,-25.3
CN1CCN(CC(O)(c2ccc(F)cc2)c2ccc(F)cc2)CC1,/,/,110.5,0.0
Cc1ccccc1-n1nc(-c2cccnc2)cc1C(=O)NN,84.6,85.5,/,-20.4
CCOc1ccc(-c2ccc(SCc3nc(-c4ccc(Br)cc4)no3)nn2)cc1,/,/,101.4,-16.4
COc1ccc(-c2noc(NCCCN3CCCC3=O)n2)cc1OC,83.4,93.1,97.7,/
CC1Sc2ccc(C(=O)Oc3ccccc3C#N)cc2NC1=O (stereo unspecified),99.2,98.0,/,-6.0
Cc1sc2ncnc(Nc3ccc4c(c3)OCCCO4)c2c1C,91.8,115.7,/,-5.6
CCN(CC)CCn1c(NC(C)=O)nc2ccccc21,/,/,101.1&101.9,-7.8&-10.4
COc1cc(OC)c(C(=O)NCc2nc(-c3ccccc3)no2)cc1OC,89.1,97.8,110.4,3.4
